High-throughput results deposited in PubChem by Broad Institute.
UUG fidelity = alters start codon recognition fidelity in yeast | activity score, % at 18.7 µM | S. cerevisiae UUG-firefly luciferase reporter, luminescence/redox ratio | 350,000 tested, 0.13% active | AID 602363;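 active means replicate mean at a twofold rise or more, about +100% in these data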;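 further: firefly luciferase made from a UUG start codon reports start codon fidelity; reporter light over untreated wells divided by growth signal over untreated wells; some hits fall short of that in this replicate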
* marks the source's active call; other numbers are inactive results. Not all compounds are listed; rates above refer to the full screens.

SMILES	UUG fidelity
Cc1cccc(S(=O)(=O)N2C[C@@H]3[C@H](c4ccccc42)[C@H](CO)N3C(=O)c2ccccc2)c1	1
O=C(c1cnccn1)N1CC[C@@H]2[C@@H](CO)Nc3ccc(-c4ccccc4F)cc3[C@@H]21	1
O=C(C[C@H]1CC[C@@H]2[C@H](COC[C@H](O)CN2C(=O)Nc2ccccc2)O1)NCCCN1CCOCC1	-19
CCCNC(=O)[C@H]1[C@H](CO)[C@H]2Cn3c(ccc(-c4ccc(F)cc4)c3=O)[C@@H]1N2CCC	-5
CCCNC(=O)N1C[C@@H](O)COC[C@@H]2O[C@@H](CC(=O)N3CCOCC3)CC[C@H]21	-14
O=C(C[C@@H]1CC[C@H]2[C@@H](COC[C@@H](O)CN2C(=O)c2ccccc2F)O1)NCc1ccc(F)cc1	5
C[C@@H]1CN([C@@H](C)CO)C(=O)c2cc(NC(=O)Cc3cn(C)c4ccccc34)ccc2O[C@@H]1CN(C)S(=O)(=O)c1cn(C)cn1	-4
CCC(=O)N1C[C@H]2[C@@H](c3ccccc31)[C@@H](CO)N2Cc1cc(F)ccc1F	-5
Cc1ccc(S(=O)(=O)Nc2ccc3c(c2)C(=O)N([C@@H](C)CO)C[C@H](C)[C@@H](CN(C)Cc2ccncc2)O3)cc1	-21
C[C@@H](NC(=O)C[C@H]1CC[C@@H]2[C@H](COC[C@@H](O)CN2C(=O)Nc2cccc(F)c2)O1)c1ccccc1	3
C/C=C/c1ccc([C@H]2[C@@H](CO)N(C(=O)COC)[C@@H]2CNC(=O)CC)cc1	1
O=C(Nc1cccc(F)c1)N1CCCCN2[C@H](CO)[C@H](c3ccc(C#Cc4ccccc4)cc3)[C@@H]2C1	7
COc1ccccc1NC(=O)N1C[C@H]2[C@@H](c3ccccc31)[C@H](CO)N2C(C)=O	21
COCCN(C[C@@H]1N[C@@H](CO)[C@@H]1c1ccc(-c2ccc(F)cc2)cc1)C(C)=O	15
C[C@H]1CN([C@@H](C)CO)C(=O)Cc2cc(NC(=O)C3CC3)ccc2O[C@H]1CN(C)S(=O)(=O)c1ccc(Cl)cc1	9
CC(C)NC(=O)N(C)C[C@@H]1Oc2c(NS(=O)(=O)c3ccc(F)cc3)cccc2C(=O)N([C@H](C)CO)C[C@H]1C	-2
COC(=O)C[C@@H]1CC[C@H]2[C@H](COc3ccc(NC(=O)Nc4c(C)noc4C)cc3C(=O)N2C)O1	7
O=C(C[C@@H]1CC[C@@H]2[C@H](COC[C@@H](O)CN2S(=O)(=O)c2ccc(Cl)cc2)O1)N[C@@H]1CCN(Cc2ccccc2)C1	9
C[C@H](CO)N1C[C@H](C)[C@H](CN(C)C(=O)NC2CCCCC2)Oc2c(NS(=O)(=O)c3cn(C)cn3)cccc2C1=O	-7
CCS(=O)(=O)Nc1ccc2c(c1)C(=O)N(C)[C@H]1CC[C@@H](CC(=O)NCCCN3CCOCC3)O[C@H]1CO2	-15
Cc1noc(C)c1NC(=O)N(C)C[C@@H]1Oc2c(NC(=O)Nc3ccc4c(c3)OCO4)cccc2C(=O)N([C@H](C)CO)C[C@@H]1C	1
C/C=C/c1ccc([C@@H]2[C@H]3CN(CCC(F)(F)F)CCCCN3[C@H]2CO)cc1	4
CC(=O)N1[C@H](CO)[C@@H]2c3ccccc3N(S(=O)(=O)c3cccc(C)c3)C[C@@H]21	-9
C[C@H]1CN([C@@H](C)CO)C(=O)Cc2cc(NC(=O)CCCN(C)C)ccc2O[C@@H]1CN(C)S(=O)(=O)c1ccccc1	-3
O=S(=O)(c1cccs1)N1CCCCN2[C@H](CO)[C@H](c3ccc(C4=CCCC4)cc3)[C@@H]2C1	3
CN1CCCCN2[C@H](C1)[C@H](c1ccc(Br)cc1)[C@@H]2CO	4
Cc1cccc(S(=O)(=O)N2CC[C@@H]3[C@H](CO)N(C)c4ccc(C#Cc5ccc(F)cc5)cc4[C@@H]32)c1	-1
CO[C@@H]1CN(C)C(=O)c2ccc(NS(C)(=O)=O)cc2OC[C@H](C)N(C(=O)C2CC2)C[C@H]1C	1
C[C@@H]1CN([C@H](C)CO)C(=O)c2cc(NC(=O)Cc3cn(C)c4ccccc34)ccc2O[C@@H]1CN(C)Cc1ccc2c(c1)OCO2	17
Cc1ccc(S(=O)(=O)Nc2cccc3c2O[C@H](CN(C)Cc2ccc(C(F)(F)F)cc2)[C@H](C)CN([C@H](C)CO)C3=O)cc1	18
C[C@@H]1CN([C@H](C)CO)C(=O)c2cc(NC(=O)Cc3ccccc3)ccc2O[C@@H]1CN(C)S(=O)(=O)c1ccc(F)cc1	10
C[C@H](NC(=O)C[C@H]1CC[C@H]2[C@@H](COC[C@@H](O)CN2C(=O)Nc2cc(Cl)cc(Cl)c2)O1)c1ccccc1	-2
O=C(C[C@H]1CC[C@@H]2[C@H](COC[C@H](O)CN2C(=O)c2cccnc2)O1)NCc1ccc(-c2ccccc2)cc1	-5
C[C@H]1CN([C@@H](C)CO)C(=O)c2cc(NC(=O)Cc3ccccc3)ccc2O[C@H]1CN(C)C(=O)Nc1ccc(F)cc1	10
CC(C)NC(=O)N1[C@H](CO)[C@@H]2c3ccccc3N(C(=O)C3CC3)C[C@@H]21	-2
CCCC(=O)Nc1ccc2c(c1)C(=O)N(C)C[C@@H](OC)[C@@H](C)CN(C(=O)c1cccnc1)[C@H](C)CO2	-3
CO[C@H]1CN(C)C(=O)c2ccc(NS(=O)(=O)c3ccccc3C)cc2OC[C@H](C)NC[C@H]1C	8
O=C(C[C@@H]1CC[C@H]2[C@@H](COC[C@@H](O)CN2C(=O)c2cccnc2)O1)NCc1ccc(-c2ccccc2)cc1	-14
C[C@@H]1CN([C@@H](C)CO)C(=O)c2c(c3ccccc3n2C)-c2ccccc2CO[C@@H]1CN(C)C(=O)c1ccccc1	-5
COc1ccc(NC(=O)Nc2ccc3c(c2)[C@@H]2C[C@@H](CC(=O)N4CCCCC4)O[C@H](CO)[C@@H]2O3)cc1	-7
Cc1ccc(S(=O)(=O)N(C)C[C@H]2Oc3ccc(NC(=O)CCN4CCOCC4)cc3CC(=O)N([C@@H](C)CO)C[C@H]2C)cc1	3
COc1ccc(NC(=O)Nc2cccc3c2O[C@@H](CN(C)Cc2ccc(C(=O)O)cc2)[C@H](C)CN([C@@H](C)CO)C3=O)cc1	-8
Cc1cccc(S(=O)(=O)N2CCCCN3[C@H](CO)[C@H](c4ccc(-c5ccccc5)cc4)[C@@H]3C2)c1	1
CN(C)C(=O)c1ccc(-c2ccc([C@@H]3[C@@H](CO)N4CCCCN(S(C)(=O)=O)C[C@@H]34)cc2)cc1	18
CCC(=O)N1CCCCN2[C@H](CO)[C@H](c3ccc(-c4ccc(F)cc4)cc3)[C@H]2C1	-1
CC(C)(O)C#Cc1ccc([C@H]2[C@H]3CN(C(=O)c4ccncc4)CCCCN3[C@H]2CO)cc1	5
CO[C@H]1CN(C)C(=O)c2cc(NC(=O)c3ccccc3)ccc2OC[C@@H](C)N(C)C[C@H]1C	7
CCC(=O)N1[C@H](C(=O)NCc2ccc(F)cc2)[C@@H](CO)[C@@H]2Cn3c(ccc(C4=CCCC4)c3=O)[C@@H]21	10
Cc1cc(C(=O)Nc2cccc3c2O[C@@H](CN(C)Cc2ccncc2)[C@@H](C)CN([C@H](C)CO)C3=O)n(C)n1	11
CC(=O)N1CCCCN2[C@H](CO)[C@H](c3ccc(-c4ccc(C)cc4)cc3)[C@@H]2C1	4
Cc1noc(C)c1NC(=O)N(C)C[C@H]1Oc2ccc(NC(=O)NC3CCCCC3)cc2C(=O)N([C@@H](C)CO)C[C@@H]1C	3
COc1ccc(NC(=O)N2C[C@@H](O)COC[C@@H]3O[C@@H](CC(=O)N4CCN(C)CC4)CC[C@H]32)cc1	-3
C[C@@H]1CN([C@H](C)CO)C(=O)Cc2cc(NC(=O)CCC(F)(F)F)ccc2O[C@H]1CN(C)Cc1ccc(C(F)(F)F)cc1	-4
O=S(=O)(c1ccc(F)cc1)N1CCCCN2[C@H](CO)[C@H](c3ccc(C#CC4CCCC4)cc3)[C@H]2C1	-10
COc1ccccc1NC(=O)N1CCCCN2[C@H](C1)[C@H](c1ccc(-c3cccc(C#N)c3)cc1)[C@@H]2CO	19
CO[C@@H]1CN(C)C(=O)c2ccc(NS(=O)(=O)c3ccccc3)cc2OC[C@H](C)NC[C@H]1C	-7
Cc1cc(C(=O)Nc2cccc3c2O[C@H](CN(C)S(=O)(=O)c2c(C)noc2C)[C@H](C)CN([C@H](C)CO)C3=O)n(C)n1	-6
Cc1cccc(S(=O)(=O)N2CC[C@@H]3[C@H]2c2cc(Br)ccc2N(C)[C@H]3CO)c1	8
CO[C@H]1CN(C)C(=O)c2cc(NS(C)(=O)=O)ccc2OC[C@H](C)N(C(=O)C2CC2)C[C@H]1C	26
C[C@H]1CN([C@@H](C)CO)C(=O)c2cccc(NC(=O)Nc3ccc(C(F)(F)F)cc3)c2O[C@H]1CN(C)S(C)(=O)=O	15

An excerpt from above in order of length of the SMILES, low to high.
SMILES	UUG fidelity
CC(C)(O)C#Cc1ccc([C@H]2[C@H]3CN(C(=O)c4ccncc4)CCCCN3[C@H]2CO)cc1	5
CO[C@H]1CN(C)C(=O)c2cc(NC(=O)c3ccccc3)ccc2OC[C@@H](C)N(C)C[C@H]1C	7
COc1ccccc1NC(=O)N1CCCCN2[C@H](C1)[C@H](c1ccc(-c3cccc(C#N)c3)cc1)[C@@H]2CO	19
Cc1noc(C)c1NC(=O)N(C)C[C@H]1Oc2ccc(NC(=O)NC3CCCCC3)cc2C(=O)N([C@@H](C)CO)C[C@@H]1C	3
C[C@H]1CN([C@@H](C)CO)C(=O)c2cccc(NC(=O)Nc3ccc(C(F)(F)F)cc3)c2O[C@H]1CN(C)S(C)(=O)=O	15

The list continues:
SMILES	UUG fidelity
C[C@@H]1CN([C@@H](C)CO)C(=O)c2cc(NC(=O)C3CC3)ccc2O[C@@H]1CN(C)S(=O)(=O)c1ccc(Cl)cc1	11
CN1c2ccc(Br)cc2[C@@H]2[C@@H](CCN2S(=O)(=O)c2cccc(F)c2)[C@H]1CO	-12
Cn1cnc(S(=O)(=O)N2CCCCN3[C@H](CO)[C@H](c4ccc(C#CC5CC5)cc4)[C@@H]3C2)c1	18
CO[C@H]1CN(C)C(=O)c2ccc(NC(=O)Cc3ccccc3)cc2OC[C@H](C)N(C(C)=O)C[C@@H]1C	2
C[C@@H]1CN([C@H](C)CO)C(=O)Cc2cc(NC(=O)c3ccncc3)ccc2O[C@H]1CN(C)S(=O)(=O)c1ccccc1	12
O=C(C1CCC1)N1CCCCN2[C@H](CO)[C@H](c3ccc(-c4cccc(F)c4)cc3)[C@H]2C1	-24
OC[C@H]1[C@H](c2ccc(-c3cccc(F)c3)cc2)[C@H]2CN(Cc3cncnc3)CCCCN21	-13
CO[C@H]1CN(C)C(=O)c2ccc(NC(=O)C3CCC3)cc2OC[C@@H](C)N(Cc2ccccn2)C[C@H]1C	-14
COCCN(C[C@@H]1N[C@@H](CO)[C@H]1c1ccc(-c2ccccc2)cc1)C(C)=O	0
CCCN1C[C@@H](C)[C@@H](OC)CN(C)C(=O)c2ccc(NC(=O)Nc3ccccc3F)cc2OC[C@H]1C	1
O=C(c1ccncc1)N1C[C@@H]2[C@H](c3ccccc31)[C@H](CO)N2C(=O)c1ccncc1	-4
CN1CCN(C(=O)C[C@@H]2CC[C@@H]3[C@H](COC[C@H](O)CN3Cc3cccc(Cl)c3)O2)CC1	0
COc1ccc(C#Cc2ccc([C@H]3[C@H]4CN(C(=O)Nc5ccccc5)CCCCN4[C@H]3CO)cc2)cc1	17
C[C@@H]1CN([C@H](C)CO)C(=O)c2cc(NS(=O)(=O)c3ccc(Cl)cc3)ccc2O[C@H]1CN(C)Cc1ccc2c(c1)OCO2	2
CCC(=O)N1CC[C@H]2[C@@H]1c1cc(-c3ccc(F)cc3)ccc1N(C)[C@H]2CO	-3
CC(C)NC(=O)Nc1ccc2c(c1)CC(=O)N([C@H](C)CO)C[C@@H](C)[C@H](CN(C)S(=O)(=O)c1ccc(F)cc1)O2	9
Cc1ccc(S(=O)(=O)Nc2cccc3c2O[C@@H](CN(C)CC2CCCCC2)[C@@H](C)CN([C@H](C)CO)C3=O)cc1	3
COc1cccc(S(=O)(=O)N2C[C@H](O)COC[C@H]3O[C@H](CC(=O)N4CCOCC4)CC[C@@H]32)c1	2
COc1ccc(S(=O)(=O)N2CCCCN3[C@H](C2)[C@H](c2ccc(C4=CCCCC4)cc2)[C@@H]3CO)cc1	6
CO[C@@H]1CN(C)C(=O)c2cc(NC(=O)c3ccc4c(c3)OCO4)ccc2OC[C@@H](C)N(CCC(F)(F)F)C[C@H]1C	1
OC[C@@H]1[C@@H](c2ccc(/C=C/c3ccccc3)cc2)[C@H]2CN(Cc3ccncc3)CCCCN12	-7
CO[C@@H]1CN(C)C(=O)c2ccc(NC(=O)C3CC3)cc2OC[C@H](C)N(C(=O)c2ccccc2)C[C@@H]1C	12
Cc1cccc(-c2ccc([C@@H]3[C@@H](CO)N4CCCCN(S(=O)(=O)c5cccc(C)c5)C[C@@H]34)cc2)c1	-8
C[C@H](CO)N1C[C@H](C)[C@H](CN(C)C(=O)Nc2ccccc2)Oc2ccc(NC(=O)CCC(F)(F)F)cc2C1=O	26
O=C(NCC1CC1)[C@H]1[C@H](CO)[C@H]2Cn3c(ccc(-c4ccccc4F)c3=O)[C@@H]1N2Cc1ccncc1	-7
C[C@@H]1CN([C@@H](C)CO)C(=O)c2cccc(NC(=O)C3CC3)c2O[C@@H]1CN(C)CC1CC1	-9

4 entries picked at random from the list so far, as already listed:
SMILES	UUG fidelity
O=C(C1CCC1)N1CCCCN2[C@H](CO)[C@H](c3ccc(-c4cccc(F)c4)cc3)[C@H]2C1	-24
CO[C@H]1CN(C)C(=O)c2cc(NS(C)(=O)=O)ccc2OC[C@H](C)N(C(=O)C2CC2)C[C@H]1C	26
COc1ccccc1NC(=O)N1CCCCN2[C@H](C1)[C@H](c1ccc(-c3cccc(C#N)c3)cc1)[C@@H]2CO	19
C[C@@H](NC(=O)C[C@H]1CC[C@@H]2[C@H](COC[C@@H](O)CN2C(=O)Nc2cccc(F)c2)O1)c1ccccc1	3
